FGF22 binding: shifts melting point of recombinant human FGF22 | recombinant FGF22 thermal shift, SYPRO orange fluorescence; percent of sucrose octasulfate shift, DMSO zero | Q9HCT0 | hit rate 1.5% among 340,000 | calls only at 9.99 µM | AID 651658;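 active means melting point raised past a set limit in the mean and every replicate; three in four hits are not shown here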
Target sequence (Q9HCT0 whole entry, looked up): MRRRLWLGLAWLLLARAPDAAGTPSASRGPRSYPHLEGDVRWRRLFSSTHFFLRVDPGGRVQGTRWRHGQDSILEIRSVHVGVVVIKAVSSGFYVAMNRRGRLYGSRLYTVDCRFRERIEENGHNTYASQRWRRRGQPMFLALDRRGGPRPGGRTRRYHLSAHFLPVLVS
rRNA inh HTS: inhibitors of bacterial rRNA selective over humanized ribosomes. E. coli WT GFP vs humanized-ribosome RFP mutants, fluorescence, 24 h; active compounds read low; DMSO median 0, no signal -100. GFP signal change (wild-type ribosome), % (concentration not given with the values). hit rate 1.6% among 350,000. AID 720706;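 active means significant combined selectivity score with lowered wild-type GFP, culture density cut under 30%, mutant RFP and density less affected; inactive means any of these conditions unmet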; further: one replicate is shown; some compounds called inactive have numbers as strong as hits
rRNA inh HTS OD600: recorded beside rRNA inh HTS, whose call it bears; OD600 change, %; measured here: OD600 growth;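 optical density of the mix in the first replicate; 0 = DMSO median and -100 = no signal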
rRNA inh HTS RFP: also measured in rRNA inh HTS; calls as there; RFP signal change, %; measured here: RFP humanized mutant strains;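 first replicate; 0 = DMSO median and -100 = no signal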
The depositor's hits bear a star; i = inactive; + = active, no number; & = joins results of further samples. Only part of the results is shown; the hit share may differ from the screen's.

FGF22 binding,rRNA inh HTS OD600,rRNA inh HTS RFP,rRNA inh HTS,canonical_smiles
i,0.0,0.0,-0.4,O=C(NCC[C@@H]1CC[C@@H](NS(=O)(=O)c2cccc(F)c2)[C@@H](CO)O1)C1CCCCC1
i,11.3,0.3,4.1,Cc1noc(C)c1NC(=O)N(C)C[C@@H]1Oc2ccc(NC(=O)c3ccncc3)cc2CC(=O)N([C@H](C)CO)C[C@@H]1C
i,-41.6,30.1,-7.7,COc1ccc(CN(C)C[C@@H]2Oc3c(NC(=O)Nc4ccc(C(F)(F)F)cc4)cccc3C(=O)N([C@H](C)CO)C[C@@H]2C)cc1
i,4.2,-1.4,2.5,O=C(C[C@@H]1C[C@H]2c3cc(NC(=O)NC4CCCC4)ccc3O[C@H]2[C@@H](CO)O1)NCc1ccc2c(c1)OCO2
i,-7.6,-4.9,-1.9,C[C@H](CO)N1C[C@H](C)[C@H](CN(C)C(=O)Nc2ccccc2)OCCCC[C@H](C)Oc2ccc(NC(=O)CCC(F)(F)F)cc2C1=O
i,2.8&5.7,-1.6&-3.7,1.0&-0.2,Cc1noc(C)c1NC(=O)N(C)C[C@@H]1OCc2cn(nn2)CCCC(=O)N([C@@H](C)CO)C[C@H]1C
i,4.5,-4.4,-1.9,Cc1noc(C)c1S(=O)(=O)Nc1cccc2c1O[C@H](CN(C)Cc1ccccc1)[C@H](C)CN([C@H](C)CO)C2=O
i,-46.2,23.9,-20.1,O=C(C[C@@H]1CC[C@@H]2[C@H](COC[C@H](O)CN2CCc2ccccc2)O1)NCc1ccc(Oc2ccccc2)cc1
i,3.3,-0.2,-1.2,CCC(=O)Nc1ccc2c(c1)C(=O)N(C)C[C@@H](OC)[C@@H](C)CN(C(=O)C1CC1)[C@@H](C)CO2
i,6.3,-1.7,4.8,CNC[C@H]1OCCCC[C@H](C)Oc2ccc(NC(=O)Nc3ccc4c(c3)OCO4)cc2C(=O)N([C@@H](C)CO)C[C@@H]1C
i,-78.4,-18.2,-60.9,CO[C@H](CN(C)S(=O)(=O)c1cn(C)cn1)[C@H](C)CN(C(=O)Nc1ccc(C(F)(F)F)cc1)[C@H](C)CO
i,2.9,-0.3,7.3,C[C@@H]1CN([C@H](C)CO)C(=O)c2cc(C3=CCCC3)cnc2O[C@@H]1CN(C)Cc1ccccc1C(=O)O
i,-10.4,1.0,-4.2,CCC(=O)N1CC2(C1)[C@@H](c1ccc(-c3ccccc3OC)cc1)[C@@H](CO)N2C(C)=O
i,0.4,-1.9,0.6,CO[C@H]1CN(C)C(=O)c2cc(NC(=O)C3CCOCC3)ccc2OC[C@@H](C)N(CC2CC2)C[C@H]1C
i,6.3,-1.0,3.4,C[C@@H]1CCCCO[C@@H](CN(C)C(=O)NC2CCCCC2)[C@@H](C)CN([C@H](C)CO)C(=O)c2cc(NC(=O)CCCCCC(=O)Nc3ccccc3N)ccc2O1
i,9.5,-1.5,0.1,C[C@@H]1CN([C@H](C)CO)C(=O)c2cccc(NC(=O)c3cnccn3)c2O[C@H]1CN(C)CC1CCCCC1

6 compounds already listed, ordered by the number in rRNA inh HTS, highest first.
FGF22 binding,rRNA inh HTS OD600,rRNA inh HTS RFP,rRNA inh HTS,canonical_smiles
i,2.9,-0.3,7.3,C[C@@H]1CN([C@H](C)CO)C(=O)c2cc(C3=CCCC3)cnc2O[C@@H]1CN(C)Cc1ccccc1C(=O)O
i,6.3,-1.0,3.4,C[C@@H]1CCCCO[C@@H](CN(C)C(=O)NC2CCCCC2)[C@@H](C)CN([C@H](C)CO)C(=O)c2cc(NC(=O)CCCCCC(=O)Nc3ccccc3N)ccc2O1
i,9.5,-1.5,0.1,C[C@@H]1CN([C@H](C)CO)C(=O)c2cccc(NC(=O)c3cnccn3)c2O[C@H]1CN(C)CC1CCCCC1
i,3.3,-0.2,-1.2,CCC(=O)Nc1ccc2c(c1)C(=O)N(C)C[C@@H](OC)[C@@H](C)CN(C(=O)C1CC1)[C@@H](C)CO2
i,-10.4,1.0,-4.2,CCC(=O)N1CC2(C1)[C@@H](c1ccc(-c3ccccc3OC)cc1)[C@@H](CO)N2C(C)=O
i,-78.4,-18.2,-60.9,CO[C@H](CN(C)S(=O)(=O)c1cn(C)cn1)[C@H](C)CN(C(=O)Nc1ccc(C(F)(F)F)cc1)[C@H](C)CO

(continued)
FGF22 binding,rRNA inh HTS OD600,rRNA inh HTS RFP,rRNA inh HTS,canonical_smiles
i,-8.0,-2.6,-2.2,CC(=O)N(C)C[C@H]1Oc2cc(-c3ccc(C)cc3)ccc2S(=O)(=O)N([C@H](C)CO)C[C@@H]1C
i,-6.3,2.5,-2.2,C[C@@H]1CN([C@@H](C)CO)C(=O)c2cccc(NS(=O)(=O)c3ccc(F)cc3)c2O[C@@H]1CN(C)C(=O)Nc1ccccc1
i,-0.5,13.8,-4.6,COCCNC(=O)c1cc2c(c(-c3cccc(C4=CCCCC4)c3)n1)[C@H](CCO)N([S@@](=O)C(C)(C)C)C2
i,-2.0,0.1,2.8,CC(=O)Nc1ccc2c(c1)C(=O)N(C)[C@@H]1CC[C@@H](CC(=O)NCc3ccc4c(c3)OCO4)O[C@@H]1CO2
i,4.1,-0.4,-6.9,COc1ccc(-c2ccc([C@H]3[C@@H](C#N)N(C(=O)NC(C)C)[C@@H]3CO)cc2)cc1
i,-26.5,19.0,-20.8,C[C@@H]1CN([C@@H](C)CO)S(=O)(=O)c2ccc(C#CC3CCCC3)cc2O[C@@H]1CN(C)Cc1cccnc1
i,-16.4,2.2,0.2,CN1[C@@H]2c3ccc(-c4ccccc4)c(=O)n3C[C@@H]2[C@@H](CO)[C@@H]1C(=O)N1CCc2ccccc2C1
i,-24.5,5.3,-6.1,C[C@H](CO)N1C[C@H](C)[C@H](CN(C)Cc2ccncc2)Oc2cc(C3=CCCC3)ccc2S1(=O)=O
i,-7.8,-1.3,3.2,C[C@@H]1CN([C@@H](C)CO)C(=O)c2cc(NS(C)(=O)=O)ccc2O[C@@H]1CN(C)C(=O)NC1CCCCC1
i,0.3,-2.1,-0.5,C[C@@H]1CCCCO[C@@H](CN(C)S(=O)(=O)c2ccccc2)[C@@H](C)CN([C@H](C)CO)C(=O)c2cc(NC(=O)CCCCCC(=O)Nc3ccccc3N)ccc2O1
i,3.3,1.6,1.7,C[C@H](CO)N1C[C@H](C)[C@@H](CN(C)Cc2ccc(C(F)(F)F)cc2)OCCCC[C@H](C)Oc2ccc(NC(=O)C3CCCCC3)cc2C1=O
i,5.2,-2.7,-1.0,COCc1cc(N2CCN(C(=O)OC(C)(C)C)C[C@H]2C)ccc1N1CCN(Cc2ccccc2)[C@@H](C)C1
i,-0.4,-1.5,2.3,C[C@@H]1CN([C@H](C)CO)C(=O)Cc2cc(NC(=O)Cc3cn(C)c4ccccc34)ccc2O[C@H]1CN(C)S(=O)(=O)c1cn(C)cn1
+,-1.2,-2.3,-2.5,COc1ccc(NC(=O)Nc2ccc3c(c2)C(=O)N([C@@H](C)CO)C[C@@H](C)[C@H](CN(C)C(=O)Nc2ccc(C(F)(F)F)cc2)OCCCC[C@@H](C)O3)cc1
i,-1.4,1.7,1.6,C[C@@H]1CN([C@@H](C)CO)C(=O)c2cc(NS(=O)(=O)c3cn(C)cn3)ccc2O[C@@H](C)CCCCO[C@H]1CN(C)C(=O)CCC(F)(F)F
i,-10.0,1.3,-6.8,CN1C(=O)c2cc(NC(=O)Cc3ccccc3)ccc2OC[C@@H]2O[C@@H](CC(=O)NCc3ccc(Cl)cc3)CC[C@H]21
i,1.3,-0.6,-4.4,O=C(C[C@@H]1C=C[C@H](NC(=O)c2cccc(F)c2)[C@@H](CO)O1)NCc1ccccc1
i,1.8,10.4,-5.0,O=S(=O)(c1ccc(F)cc1)N1CC[C@@H]2[C@H](CO)Nc3ccc(C#CC4CCCCC4)cc3[C@@H]21
i,-0.2,0.3,-1.0,Cc1ccc(S(=O)(=O)N(C)C[C@H]2Oc3ccc(NS(=O)(=O)c4c(C)noc4C)cc3C(=O)N([C@@H](C)CO)C[C@@H]2C)cc1
i,-42.3,-0.1,-38.9,C[C@@H]1CN([C@@H](C)CO)C(=O)Cc2cc(NC(=O)Cn3cnnn3)ccc2O[C@H]1CN(C)Cc1ccc(-c2ccccc2)cc1
i,-3.6,0.7,-3.3,COc1ccc(S(=O)(=O)N(C)C[C@H]2Oc3ncc(-c4ccncc4)cc3C(=O)N([C@H](C)CO)C[C@@H]2C)cc1
i,-3.5,2.2,0.0,CO[C@H]1CN(C)C(=O)c2cc(NC(=O)CC(F)(F)F)ccc2OC[C@H](C)N(CCC(F)(F)F)C[C@@H]1C
i,10.0,-5.1,1.8,C[C@H]1CN([C@@H](C)CO)C(=O)c2cccc(NC(=O)c3ccncc3)c2O[C@@H]1CN(C)C(=O)Nc1ccccc1
i,-22.3,17.2,-1.4,CC(C)CC#Cc1cnc2c(c1)C(=O)N([C@@H](C)CO)C[C@H](C)[C@@H](CN(C)C(=O)Nc1cccc(F)c1)O2
i,-0.7,-2.8,-2.0,C[C@@H]1CN([C@H](C)CO)C(=O)c2cc(NC(=O)C3CCCCC3)ccc2O[C@@H](C)CCCCO[C@H]1CN(C)Cc1ccc2c(c1)OCO2
i,-8.5,1.8,1.6,Cc1noc(C)c1S(=O)(=O)Nc1ccc2c(c1)CC(=O)N([C@H](C)CO)C[C@H](C)[C@H](CN(C)S(=O)(=O)c1ccc(Cl)cc1)O2
i,7.3,-1.8,-0.4,CCC(=O)Nc1ccc2c(c1)C(=O)N(C)C[C@H](OC)[C@H](C)CN(C(=O)Cc1cccnc1)[C@H](C)CO2
i,15.8,-1.6,0.3,Cc1noc(C)c1NC(=O)Nc1ccc2c(c1)C(=O)N([C@H](C)CO)C[C@@H](C)[C@H](CN(C)S(=O)(=O)c1cn(C)cn1)O2
i,4.8,0.8,0.2,CC(C)CC#Cc1cnc2c(c1)C(=O)N([C@@H](C)CO)C[C@H](C)[C@@H](CN(C)C(=O)c1cccnc1)O2
i,5.2,0.9,2.0,C[C@@H]1CN([C@@H](C)CO)C(=O)c2cc(NS(=O)(=O)c3cn(C)cn3)ccc2O[C@@H]1CN(C)C(=O)Nc1cccc2ccccc12
i,4.0,-0.9,0.5,COCCNC(=O)C[C@H]1CC[C@H](NC(=O)NC2CCCCC2)[C@@H](CO)O1
i,5.2,-1.2,-4.1,C[C@H](CO)N1C[C@H](C)[C@H](CN(C)Cc2ccc(C(=O)Nc3ccccc3N)cc2)Oc2ccc(NS(C)(=O)=O)cc2CC1=O
i,-2.0,-0.1,-1.5,C[C@@H]1CN([C@@H](C)CO)C(=O)c2ccccc2-c2ccccc2CO[C@H]1CN(C)C(=O)Cc1ccccc1
i,5.3,0.4,2.9,O=C(C[C@@H]1CC[C@H]2[C@@H](COC[C@@H](O)CN2C(=O)c2ccc(F)cc2)O1)NC1Cc2ccccc2C1
i,-3.7,-1.1,-0.7,C[C@H]1CN([C@@H](C)CO)C(=O)c2cccc(NC(=O)NC3CCCCC3)c2O[C@H]1CN(C)S(=O)(=O)c1ccccc1
i,-2.1,-2.5,0.2,COc1ccc(NC(=O)N(C)C[C@H]2Oc3ccc(NC(=O)Cc4cn(C)c5ccccc45)cc3CC(=O)N([C@@H](C)CO)C[C@H]2C)cc1
i,-5.6,2.2,2.0,C[C@@H]1CN([C@H](C)CO)C(=O)c2cccc(NC(=O)C3CCCCC3)c2O[C@@H]1CN(C)C(=O)Nc1cccc2ccccc12
i,-7.2,0.3,-4.2,C[C@@H]1CCCCO[C@H](CN(C)C(=O)Cc2ccccc2)[C@@H](C)CN([C@@H](C)CO)C(=O)c2cc(NC(=O)C3CCCCC3)ccc2O1
i,7.2,1.0,3.2,COc1ccc(CN(C)C[C@@H]2Oc3ccc(NC(=O)Cn4cnnn4)cc3CC(=O)N([C@@H](C)CO)C[C@@H]2C)cc1
i,2.4,1.9,2.0,CC(C)NC(=O)NCC[C@@H]1CC[C@H](NC(=O)c2ccc(F)cc2)[C@@H](CO)O1
i,1.6,3.7,-2.7,CN1c2ccc(-c3ccccc3)cc2[C@@H]2[C@@H](CCN2C(=O)Cc2ccccn2)[C@@H]1CO
i,-4.2,1.1,5.0,C[C@@H]1CN([C@@H](C)CO)C(=O)c2cc(NC(=O)Nc3ccc4c(c3)OCO4)ccc2O[C@H]1CN(C)Cc1ccncc1
i,-2.3,1.4,-3.6,C[C@H]1CN([C@@H](C)CO)C(=O)Cc2cc(NC(=O)Cc3ccccc3)ccc2O[C@@H]1CN(C)S(=O)(=O)c1cccs1
i,-5.7,0.0,2.2,COc1ccc2c3c(n(C)c2c1)[C@@H](CO)N(C(=O)NC1CCCCC1)CC31CN(C)C1
i,10.5,-1.6,0.8,O=C(C[C@@H]1CC[C@@H](NC(=O)c2cccnc2)[C@@H](CO)O1)NCc1ccncn1
i,6.4,1.3,-2.4,O=C(C[C@@H]1C[C@H]2c3cc(NC(=O)NC4CCCCC4)ccc3O[C@H]2[C@H](CO)O1)NCC(F)(F)F
i,2.5,-1.6,-7.3,C[C@H](CO)N1C[C@H](C)[C@@H](CN(C)Cc2ccncc2)Oc2ccc(NS(=O)(=O)c3ccccc3)cc2CC1=O
i,-14.4,5.7,-6.7,C[C@H](CO)N1C[C@H](C)[C@H](CN(C)C(=O)NC2CCCC2)Oc2cc(/C=C/c3ccccc3)ccc2S1(=O)=O

Bioassay records (PubChem)
